D2 PAM = human D2 receptor positive allosteric modulation; 360,000 tested, 0.23% active; DiscoveRx D2 beta-arrestin cells, luminescence, 90 min; 100% = 57 uM dopamine signal; potentiation, % (no concentration beside the values); active = potentiation of 50% or more; inconclusive = 30% to 50%; inactive = 30% or less;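 also: compound concentration not given in the record; tested on top of an EC20 dose of dopamine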
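PathHunter D2 cells, attached overnight at 37 deg C, received compound in DMSO plus dopamine at EC20 (50 nM final) for 90 min at 37 deg C. Beta-arrestin recruitment was read as luminescence after 1 h with detection reagent at ambient temperature.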
gsp agonist = agonists of gsp mutant (McCune-Albright syndrome); gsp mutant cells, cAMP HTRF, 30 min; control for the full effect not named in the record; Potency, µM (series often up to 76.9 µM), for the others: at the highest dose activation (cAMP increase), usual class: activators; 340,000 tested, 0.13% active; AID 624287; active = well fitted activation curve with a large enough effect; inconclusive = small, poorly fitted or top-dose-only effect, or another doubt; inactive = no such curve, though single readings can be large or run the other way; cell line not stated here;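 also: phosphodiesterase inhibitor Ro 20-1724 added with compounds to block cAMP breakdown; potency is read from the fitted curve at half-maximal effect; nearly all actives have a fitted effect of over 60% in size; about a fifth of the inactives were tested at one dose only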
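Cells stably selected in G418 were plated at 2000/well, grown 16-24 hr, then given compounds in DMSO with the PDE inhibitor […] (300 uM solution added) for 30 min at 37C; cAMP was read by HTRF.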
TRPV1 potentiator = enhances activation of the human vanilloid receptor TRPV1; TRPV1-expressing cells, Fluo-8 calcium influx, capsaicin EC20 potentiation; host cell line not named in the record; control for the full effect not named in the record; potentiation, % at 8.33 µM; 320,000 tested, 0.02% active; active means potentiation above 80%; inconclusive means 30% to 80%; inactive means below 30%; also: 0% is about no effect
Target sequence (Q8NER1 whole entry, looked up): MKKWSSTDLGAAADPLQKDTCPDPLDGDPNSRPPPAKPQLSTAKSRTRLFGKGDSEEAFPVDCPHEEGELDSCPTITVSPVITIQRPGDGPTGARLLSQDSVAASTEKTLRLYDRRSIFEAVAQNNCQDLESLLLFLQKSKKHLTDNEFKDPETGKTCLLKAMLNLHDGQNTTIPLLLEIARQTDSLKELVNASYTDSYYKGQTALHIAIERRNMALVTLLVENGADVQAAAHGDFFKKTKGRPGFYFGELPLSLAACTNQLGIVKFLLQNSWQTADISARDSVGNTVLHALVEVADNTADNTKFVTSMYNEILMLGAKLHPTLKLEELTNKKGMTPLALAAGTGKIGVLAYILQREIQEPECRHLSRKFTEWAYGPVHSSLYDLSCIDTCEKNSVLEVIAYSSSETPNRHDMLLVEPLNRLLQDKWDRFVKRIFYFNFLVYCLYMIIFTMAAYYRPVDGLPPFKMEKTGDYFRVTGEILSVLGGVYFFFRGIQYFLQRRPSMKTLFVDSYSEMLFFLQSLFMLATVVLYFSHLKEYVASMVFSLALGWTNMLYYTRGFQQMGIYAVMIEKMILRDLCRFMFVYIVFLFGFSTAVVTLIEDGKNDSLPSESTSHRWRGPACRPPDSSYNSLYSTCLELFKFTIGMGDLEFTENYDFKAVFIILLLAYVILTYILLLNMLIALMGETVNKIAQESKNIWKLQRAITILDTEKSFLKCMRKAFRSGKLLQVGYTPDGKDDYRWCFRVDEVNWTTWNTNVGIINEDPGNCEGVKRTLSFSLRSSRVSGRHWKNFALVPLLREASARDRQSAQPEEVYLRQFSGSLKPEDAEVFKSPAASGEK
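Cells expressing TRPV1 were dye-loaded with Fluo-8 and read kinetically: 10 s baseline, 3 min after compound (agonist portion), then 2 min after EC20 capsaicin (allosteric enhancer portion). Calcium-bound dye fluorescence at 480/520 nm.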
Menin MLL FP FL = displaces fluorescein MLL peptide from human menin; Fluorescence polarization, fluorescein-MLL peptide displacement from menin; FP activity change, % at 61.4 µM; 290,000 tested, under 10 active; inconclusive = falling polarisation curve, or a change in total fluorescence; inactive = total fluorescence flat and polarisation flat or rising; no compound was filed as active; the % refers to the polarisation; negative = inhibition;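 also: % of control where 0% means no effect; inhibitors lower the polarisation; unlabelled MLL peptide was the positive control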
gsp antagonist = antagonists of gsp mutant (McCune-Albright syndrome); gsp-mutant cells, cAMP HTRF, 30 min; control for the full effect not named in the record; Potency, µM (series often up to 76.9 µM), inactives show top-dose activity change, negative = inhibition, usual class: inhibitors; 340,000 tested, 0.4% active; AID 624288; active = falling curve of any shape with a large fitted effect; inconclusive = falling curve, mostly with a smaller effect; inactive = flat or rising curve; cell line not stated here;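 also: intracellular cAMP measured with PDE inhibitor Ro 20-1724 present during compound exposure; potency is read from the fitted curve at half-maximal effect; % is scaled to controls: 0 for no effect and ±100 for the full control effect; nearly all actives have a fitted effect of over 65% in size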
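Cells, 2000/well, grown 16–24 h in DMEM 10% FBS with 0.5 mg/ml G418, then compounds plus […] (300 uM addition stock), 30 min at 37C. cAMP read by HTRF (cAMP-d2 and anti-cAMP antibody-K in lysis buffer) after 30 min RT.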
Sfp inh = Sfp phosphopantetheinyl transferase inhibition; Q9F4F7; Biochemical Sfp PPTase activity, qHTS; Potency, µM, inactives show max response, negative = inhibition, usual class: inhibitors; 310,000 tested, 3.5% active; AID 1490; active = well fitted inhibition curve with a large enough effect; inconclusive = small, poorly fitted or top-dose-only effect, or another doubt; inactive = no such curve, though single readings can be large or run the other way;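 also: the enzyme is Sfp with the accession as filed and its product quenches rhodamine fluorescence; potency is read from the fitted curve at half-maximal effect; 0% = enzyme reaction without inhibitor and -100% = no enzyme wells; top concentration of the series not given in the record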
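After 15 min at room temperature with compound, 15 nM Sfp received 5 uM rhodamine-CoA plus 12.5 uM BHQ-2-ybbR (50 mM Hepes pH 7.6, 10 mM MgCl2). Rate came from the fluorescence difference over 30 min, ex 525/em 598 nm.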
ClpP mod = qHTS Assay for Activators of ClpP. Potency, µM (series often up to 57.5 µM), inactives show at the top dose activity change, negative = active. 340,000 tested, 1.9% active. purified B. subtilis ClpP, FRET peptide cleavage, 20 min. ATP-dependent Clp protease proteolytic subunit (Bacillus subtilis (strain 168)), P80244; active = well fitted falling curve with a large enough effect; inconclusive = small, poorly fitted or top-dose-only effect; inactive = no such curve, though single readings can be large or run the other way; also: potency is read from the fitted curve at half-maximal effect; the source files actives as falling curves though it sought activators and does not explain the sign; nearly all actives have a fitted effect of over 65% in size; many hits overshoot -100%
Target sequence (P80244 whole entry, looked up): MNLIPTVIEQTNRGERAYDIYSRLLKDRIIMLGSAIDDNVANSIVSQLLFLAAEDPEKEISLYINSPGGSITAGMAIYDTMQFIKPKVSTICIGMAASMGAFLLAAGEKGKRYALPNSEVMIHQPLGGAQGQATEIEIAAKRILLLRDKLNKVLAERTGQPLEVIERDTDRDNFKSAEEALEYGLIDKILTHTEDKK
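Buffer: 100 mM Tris/HCl pH8, 100 mM KCl, 0.05% low protease BSA, 2.5% glycerol, 0.01% Tween-20. ClpP 10 microg/mL final; 20 min RT; delta FRET normalized to ADEP and DMSO controls.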
The depositor's hits bear a star; ? = inconclusive; . = not tested or not shown; & = joins results of further samples; [ ] = another dose, or the depositor's remark.

SMILES	D2 PAM	gsp agonist	TRPV1 potentiator	Menin MLL FP FL	gsp antagonist	Sfp inh	ClpP mod
Cc1nn(C(C)C(=O)NCc2ccco2)c(C)c1[N+](=O)[O-] (stereo unspecified)	-3	?	-7	-0.3	10%	15%	-0.4%
COc1ccc(-c2nnc(SCC(=O)c3ccc(O)cc3O)o2)cc1	-6	-3%[15.4 µM]	7	4.8	-6%	7%	.
Cc1ccc(OCC(=O)Nc2nnc(S(=O)(=O)N3CCCCCC3)s2)cc1	6	?	?	-2.0	-11%	-2%	-2.9%&-2.1%
O=C(O)CCNC(=O)/C(=C/c1ccco1)NC(=O)c1ccco1	-22	-33%[inhibitor]	-10	-6.2	-3%	?	-1.4%
O=S(=O)(c1ccccc1)N(CC1CO1)c1cccc2ccccc12 (stereo unspecified)	4	2%	-26	-0.9	2%	3%	.
Cc1ccc(C)c(N(CC(=O)NCCc2ccccc2)C(=O)CCC(=O)Nc2ccccn2)c1	-10	-10%[15.4 µM]	14	-0.7	-7%	7%	.
CN(C)C(=O)CSc1nc(-c2ccccc2)c(-c2ccccc2)o1	-5	-1%[15.4 µM]	-11	5.3	-37%	-5%	.
CCN(CC)S(=O)(=O)c1ccc(C)c(NC(=O)/C=C/c2cccs2)c1	-19	-13%	-14	3.7	?	7%	-2.2%
O=c1[nH]c2cc(Cl)ccc2c(O)c1-c1cccc(Oc2ccccc2)c1	3	.	.	1.5&7.9	-12%	12%&8%	-17%
COc1ccc(CCNC(=O)c2nnc(Cc3ccc(Cl)cc3)o2)cc1OC	0	19%	-12	-1.5	-6%	-12%	1.2%&0.2%
CCc1nn(C(C)C(=O)Nc2cccc(C)c2C)c(=O)c2cc3occc3n12 (stereo unspecified)	?	36%	2	7.5	-7%	-14%	-7.3%
O=C1c2ccccc2S(=O)(=O)N1CC(O)COc1ccc(Cl)cc1 (stereo unspecified)	-2	1%	4	2.1	5%	-1%	-2.1%
COc1ccc(CCNS(=O)(=O)c2ccc(Cl)s2)cc1OC	-6	3%[15.4 µM]	10	-2.3	-1%	4%	-16%
O=C(NCCCN1CCc2ccccc2C1)C1CCN(c2nnc(-n3cccc3)s2)CC1	-9	-74%[inhibitor]	7	3.7	-3%	-15%	0.4%
Cc1csc(NC(=O)CSc2nnc(-c3ccncc3)n2C)n1	0	-11%	-3	0.2	7%	-4%	1.0%

Some of these compounds in order of their number in Sfp inh, high to low.
Molecule | D2 PAM | gsp agonist | Menin MLL FP FL | gsp antagonist | Sfp inh
O=S(=O)(c1ccccc1)N(CC1CO1)c1cccc2ccccc12 (stereo unspecified) | 4 | 2% | -0.9 | 2% | 3%
O=C1c2ccccc2S(=O)(=O)N1CC(O)COc1ccc(Cl)cc1 (stereo unspecified) | -2 | 1% | 2.1 | 5% | -1%
CN(C)C(=O)CSc1nc(-c2ccccc2)c(-c2ccccc2)o1 | -5 | -1%[15.4 µM] | 5.3 | -37% | -5%
COc1ccc(CCNC(=O)c2nnc(Cc3ccc(Cl)cc3)o2)cc1OC | 0 | 19% | -1.5 | -6% | -12%

Next entries
SMILES	D2 PAM	gsp agonist	TRPV1 potentiator	Menin MLL FP FL	gsp antagonist	Sfp inh	ClpP mod
O=C(c1cc(-c2ccncc2)nc2ccc(Br)cc12)N1CCN(c2ccccn2)CC1	4	-27%	-7	-0.1	?	-8%	-4.9%
COC(=O)COc1ccc(S(=O)(=O)Nc2ccc(C(N)=O)cc2)cc1	-2	-53%[inhibitor]	-7	1.3	-13%	14%	-0.7%
COc1ccccc1N1CCN(C(=O)c2ccc(S(=O)(=O)N3CCCCCC3)cc2)CC1	-12	3%	-1	4.7	2%[15.4 µM]	3%	-1.7%
Cc1ccc(S(=O)(=O)Cn2nnnc2C(C(C)C)N2CCN(Cc3ccco3)CC2)cc1 (stereo unspecified)	-33	?	-11	-0.3	5%	11%	-0.3%
CC(C)Cc1nnc(NC(=O)CCC(=O)N2CCN(c3ccccn3)CC2)s1	5	23%	-2	3.0	5%	-6%	25µM*
O=C1c2cc(S(=O)(=O)NCCO)ccc2-c2ccc(S(=O)(=O)NCCO)cc21	2	0%[15.4 µM]	-2	-0.6	8%	15%	.
COc1ccc(CSc2nnc(C)s2)cc1F	1	-25%	-4	-5.1	-1%	24%	.
CCC(=O)Nc1cccc(NC(=O)c2ccc(C)cc2Cl)c1	-9	8%[15.4 µM]	-2	2.4	-2%	21%	0.6%
CC1CCN(CCC(=O)N/N=C/c2ccc([N+](=O)[O-])cc2)CC1	-27	13%[15.4 µM]	-37	-6.1	-15%	11%	.
O=C(CSc1nnc(-c2ccccc2)n1Cc1ccccc1)N1CCCC1	-2	0%	-20	1.7	-2%	13%	-0.5%
Cc1ccccc1C(=O)Nc1c(C(=O)N2CCN(C)CC2)cnn1-c1ccccc1	-32	-19%	.	.	5%	.	0.5%
O=C(Nc1cccc(-c2ccc3nncn3n2)c1)c1ccco1	-1	7%[15.4 µM]	12	-1.0	-16%	6%	.
CCOc1ccccc1C1C(C#N)=C(N)Nc2onc(-c3ccccc3)c21 (stereo unspecified)	-12	4%	1	0.6	3%	12%	-2.5%
CCN1C[C@@H]2[C@@H]3C(=O)N(Cc4ccccc4)C(=O)[C@@H]3[C@](CC)(C1=O)N2C(=O)c1ccc(Cl)c(Cl)c1	-1	7%	.	.	-22%	.	2.3%
COc1ccc(S(=O)(=O)N2CCC(C(=O)NCCC(=O)Nc3cccc(OC)c3)CC2)cc1	-10	?	-17	.	-14%	13%	1.4%
O=C1COc2ccc(S(=O)(=O)NCc3ccc(Cl)cc3)cc2N1	10	12%	-23	.	9%	4%	1.9%
Cc1ccc(OCCNC(=O)C2CCCCC2)cc1	-2	-1%[15.4 µM]	-1	1.3	20%	-19%	.
Cc1ccccc1NC(=O)c1cccc(N2C(=O)C3C4CCC(C4)C3C2=O)c1 (stereo unspecified)	-4	7%	9	2.9	-2%	18%	1.3%
CSc1ccc(CN(C)CC(=O)Nc2cccc(Br)c2)cc1	-30	0%	6	-1.3	-6%	?	-1.9%
CC1CCCC(C)N1/N=C/c1ccccc1C(=O)O (stereo unspecified)	5	10%[15.4 µM]	-3	-0.1	-5%	8%	.
COc1ccc(NC(=O)CN(C)C(=O)c2ccc(C)c(S(=O)(=O)N3CCCCC3)c2)cc1	-5	-43%[inhibitor]	.	.	6%	.	0.0%
COc1cccc(NC(=O)CN(C)C(=O)c2ccc(NS(=O)(=O)c3ccc(F)cc3)cc2)c1	-2	-20%	-2	.	-15%	.	-0.1%
O=C(Nn1c(C2CCCCC2)nc2ccccc2c1=O)c1ccc([N+](=O)[O-])cc1	12	-5%[15.4 µM]	-9	.	-16%	22%	.
CCn1cc(C(=O)OCC(=O)N2C(C)CCCC2C)c(=O)c2ccc(C)nc21 (stereo unspecified)	-17	0%[15.4 µM]	5	-0.4	-1%	?	16µM*
O=C(Cc1ccc(NC(=O)C2CCCN(C(=O)C3CC3)C2)cc1)Nc1ccc(C(=O)N2CCOCC2)cc1 (stereo unspecified)	5	.	.	.	6%	.	0.2%
CN1CCN(c2ccc(CNS(=O)(=O)c3ccsc3)cc2)CC1	-18	-10%	-8	1.1	3%	-5%	-1.0%
Cc1c(N(CC(=O)O)S(=O)(=O)c2ccccc2)c(=O)n(-c2ccccc2)n1C	-5	1%[15.4 µM]	-9	-2.6	12%	5%	0.7%
Cc1ccc(S(=O)(=O)CCOC(=O)CNC(=O)OCc2ccccc2)cc1	-6	31%	.	.	.	.	2.4%
CCOC(=O)/C(C#N)=C1/C=CN(c2ccc(C)cc2)C=N1	-1	8%	15	-0.8	-19%	7%	-0.9%
O=C(COc1ccc2c3c(c(=O)oc2c1)CCC3)Nc1ccc(CCO)cc1	0	-8%	-1	-8.4	1%	-13%	4.0%
Cc1cnc([N+](=O)[O-])n1CCOC(=O)NC(=O)c1ccc(F)cc1	-2	-8%[15.4 µM]	1	-1.7	4%	9%	.
Cc1c(C(=O)N2CCC3(CC2)CC(=O)c2ccccc2O3)cccc1[N+](=O)[O-]	0	?	-6	.	?	.	-16%
Cc1cc(C)n2nc(SCC(=O)N/N=C/c3ccccc3F)nc2n1	-8	?	5	-0.8	8%	7%	-1.1%
CC1(C)CC(=O)C(Sc2ccccc2[N+](=O)[O-])=C(O)C1	4	-35%[inhibitor]	8	1.4	6%	?	1.2%
O=C(CCSc1ccc(Cl)cc1)N1CCN(S(=O)(=O)c2ccccc2)CC1	4	22%	-13	.	-24%	.	0.6%
CCCC1=NN(C(=O)C(=O)Nc2ccc(Br)cc2)C(O)(C(F)(F)F)C1 (stereo unspecified)	-13	2%	15	-0.8	-14%	2%	.
Cc1ccc(F)c(CNC(=O)C2CCC(=O)N(CCN3CCOCC3)C2)c1F (stereo unspecified)	-12	24%	7	.	11%	9%	-3.1%
COC(=O)CCC(=O)Nc1cccc(Br)c1	-14	-42%[inhibitor]	-9	1.5	7%[15.4 µM]	22%	0.7%
CCCN(CC1CC1)S(=O)(=O)c1ccc(-n2cnnn2)c(OC)c1	0	-41%[inhibitor]	-2	1.6	4%	6%	1.1%
CC[C@H](C)[C@@H]1NC(=O)c2cc([N+](=O)[O-])cc(F)c2NCCCC[C@@H](C(N)=O)NC(=O)[C@H](CC(N)=O)NC1=O	-6	.	25	5.6	16%	7%	0.7%
CCCC(=O)Nc1nc2ccc(NC(=O)c3c(F)c(F)c(OC)c(F)c3F)cc2s1	0	2%	3	0.3	17%	-2%	-1.7%
N#Cc1c(/N=C/N2CCCC2)oc(-c2ccccc2)c1-c1ccccc1	-1	-4%	2	6.0	-3%	6%	-5.7%
CCOC(=O)C(Cc1ccccc1)c1ccnc2ncnn12 (stereo unspecified)	-4	16%	0	0.9	10%	4%	.
Cc1cc(Cn2nc(C(=O)NCC3CC3)cc2-c2ccccc2)on1	3	2%	-4	.	?	.	0.8%
CCNC(=O)COC(=O)CCNC(=O)c1cccc(C)c1	-3	4%[15.4 µM]	?	0.2	9%	12%	.

Compounds were not picked by outcome; about 5.1% have a hit in one of these screens.
